SARS PLP yeast: SARS-CoV PLP inhibition in yeast | S. cerevisiae expressing SARS-CoV PLpro, growth rescue; control for the full effect not named in the record | Potency, µM (highest dose often 32.9 µM), for inactives: at the top dose activity, positive = growth rescue | 330,000 compounds, 0.19% hits | AID 485353; note: 0% is about no effect; nearly all actives have a fitted effect of over 55% in size; growth read by luminescence after 48 h
Lassa entry inh: inhibitors of Lassa virus binding or cell entry. Lassa virus pseudotype entry inhibition, cell reporter; control for the full effect not named in the record. Potency, µM (series often up to 37.9 µM), for inactives: at the highest dose activity change, negative = inhibition, usual class: inhibitors. 300,000 compounds, 1.2% hits. AID 540256; active means well fitted inhibition curve with a large enough effect; inconclusive means small, poorly fitted or top-dose-only effect, or effect the other way; inactive means flat fitted curve, though single readings scatter; tested in HEK293 cells; note: % is set by controls: 0 for no effect and ±100 for the full control effect; nearly all actives have a fitted effect of over 50% in size; luciferase read-out
Marburg entry inh: blocks Marburg virus binding to or entry into cells | Marburg virus pseudotyped entry inhibition, cell reporter; control for the full effect not named in the record; about a third of the inactives were read at about 46 µM | Potency, µM (highest dose often 37.8 µM), without a hit: at the top dose activity change, negative = inhibition, most hits filed as inhibitors | 300,000 compounds, 1.8% hits; active = well fitted inhibition curve with a large enough effect; inconclusive = small, poorly fitted or top-dose-only effect, or effect the other way; inactive = flat fitted curve, though single readings scatter; tested in HEK293 cells; about a fifth of its hits are not listed in these tables; note: % is set by controls: 0 for no effect and ±100 for the full control effect; luciferase read-out
Cruzain inh Det: blocks cruzain activity in presence of Triton detergent; Potency, µM, without a hit: max response, negative = inhibition, actives largely listed as inhibitors; AID 1478; P25779; purified cruzain, Z-FR-AMC fluorescence, 0.01% Triton; 200,000 compounds, 0.43% hits; active = well fitted curve in the direction sought with a large enough effect; inconclusive = small, poorly fitted or top-dose-only effect, or another doubt; inactive = no such curve, though single readings can be large; an effect the other way counts as inactive or inconclusive;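 note: plate controls were neutral wells for no effect and buffer without enzyme for full effect; nearly all actives have a fitted effect of over 40% in size; top concentration of the series not given in the record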
Target sequence (P25779 123-467 limits assumed): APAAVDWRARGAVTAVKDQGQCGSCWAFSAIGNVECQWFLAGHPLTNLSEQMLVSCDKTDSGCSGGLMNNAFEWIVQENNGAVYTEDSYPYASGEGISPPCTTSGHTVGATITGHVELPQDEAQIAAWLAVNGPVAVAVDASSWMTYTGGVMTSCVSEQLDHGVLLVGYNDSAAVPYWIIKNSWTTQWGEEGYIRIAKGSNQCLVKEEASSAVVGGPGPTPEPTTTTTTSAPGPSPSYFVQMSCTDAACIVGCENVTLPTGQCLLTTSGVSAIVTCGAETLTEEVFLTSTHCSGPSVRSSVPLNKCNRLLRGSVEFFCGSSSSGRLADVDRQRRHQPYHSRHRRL
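Compounds were screened in titration against cruzain (1.5 nM) with 0.01% Triton X-100 to counter colloidal aggregation. Activity was the AMC fluorescence increase over 60 s after adding 2 uM Z-FR-AMC at pH 5.5.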
NS1 inh: blocks influenza NS1 protein function. S. cerevisiae slowed by influenza A NS1, growth recovery by OD600. Potency, µM (titrated, usually from 46.1 µM), inactives show at the highest dose activity, positive = more growth. 270,000 compounds, 0.4% hits; note: actives are rising curves; nearly all actives have a fitted effect of over 50% in size
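A cell-based growth assay was used: compounds that relieve NS1-induced slow growth of budding yeast raise OD600. Assay medium was yeast nitrogen base with ammonium sulphate and -URA supplement, pH 6.0, with 2% galactose.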
Cruzain noTriton: blocks cruzain activity in detergent-free assay | purified cruzain, Z-FR-AMC fluorescence, no detergent | Potency, µM, inactives show max response, negative = inhibition, usual class: inhibitors | 200,000 compounds, 2.3% hits; active = well fitted curve in the direction sought with a large enough effect; inconclusive = small, poorly fitted or top-dose-only effect, or another doubt; inactive = no such curve, though single readings can be large; an effect the other way counts as inactive or inconclusive;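 note: plate controls were enzyme without inhibitor for no effect and buffer without enzyme for full effect; nearly all actives have a fitted effect of over 40% in size; top concentration of the series not given in the record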
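Detergent-free condition (0.00005% Triton X-100) in acetate buffer pH 5.5 with DTT. 1.5 nM enzyme and compound were pre-mixed 15 min, then 2 uM Z-FR-AMC substrate added; reaction progress from fluorescence change between first and third reads (60 s).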
StopGo reporter: FMDV 2A StopGo reporter, luciferase signal; human cells with a luciferase reporter of 2A StopGo recoding; control for the full effect not named in the record; Potency, µM (doses to about 57.9 µM), inactives show at the highest dose signal change, negative = less light; 410,000 compounds, 1.2% hits; AID 1159524; active = well fitted falling curve with a large enough effect; inconclusive = small, poorly fitted or top-dose-only effect; inactive = no such curve, though single readings can be large or run the other way; tested in HEK293T cells; note: % is set by controls: 0 for no effect and ±100 for the full control effect; nearly all actives have a fitted effect of over 45% in size; luciferase light after 4 h
RE007 growth inh: less growth of the S. pombe RE007 Vpr strain. AID 651644. S. pombe RE007 Vpr strain, BacTiter-Glo ATP luminescence, 24 h; control for the full effect not named in the record. Potency, µM (highest dose often 92.2 µM), without a hit: at the top dose activity change, negative = less growth. 360,000 compounds, 0.21% hits; active = well fitted falling curve with a large enough effect; inconclusive = small, poorly fitted or top-dose-only effect; inactive = no such curve, though single readings can be large or run the other way;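 note: % is set by controls: 0 for no effect and ±100 for the full control effect; nearly all actives have a fitted effect of over 50% in size; the assay follows cell death caused by Vpr and the record does not say whether a fall means rescue or toxicity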
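Fission yeast RE007 carrying one integrated HIV-1 vpr copy, seeded at OD 0.01 in PMG+AL medium with 23 nL pinned compound. Grown 24 h at 30 degrees; viability read by BacTiter-Glo luminescence after 5 min.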
* = called active by the depositor; ? = inconclusive; nt = no result given; & = joins results of further samples; [ ] = remark or other dose. Unless noted, calls come from the whole dose curve; as a rule, active means well fitted rising curve with a large enough effect; inconclusive means small, poorly fitted or top-dose-only effect; inactive means no such curve, though single readings can be large or run the other way. Potency is the fitted concentration of half-maximal effect.

molecule | SARS PLP yeast | Lassa entry inh | Marburg entry inh | Cruzain inh Det | NS1 inh | Cruzain noTriton | StopGo reporter | RE007 growth inh
CC1(C)Cc2c(sc(NC(=O)C3CC(Cl)=CCC3C(=O)O)c2C#N)CO1 (centres undefined) | 1% | 5%[46.1 µM] | 6%[46.1 µM] | nt | 4% | nt | -5% | -1%
O=C(Cc1cccc2ccccc12)Nc1ccc2oc(-c3ccccc3)nc2c1 | -6% | -3% | 23% | 6.5% | -5% | ? | 9% | -5%
Cn1c(C(=O)N2CCOCC2)cc2c(=O)n3ccccc3nc21 | 1% | 21%[46.1 µM] | 19%[46.1 µM] | nt | 8% | nt | 7% | 8%
CNc1cccc2c1C(=O)c1ccccc1C2=O | -22% | ? | 0% | -4.8% | 3% | -3% | 11% | -18%
O=C(NCCS(=O)(=O)N1CCN(c2ccc(F)cc2)CC1)c1cccc(C(F)(F)F)c1 | nt | 6%[46.1 µM] | nt | -7.1% | nt | -1% | 0% | nt
Cc1cc(C)n2nc(C(=O)N/N=C/c3ccccc3C)nc2n1 | -1% | nt | nt | nt | 12% | nt | 2% | -14%
Cc1ccc(C)c(N2CCN(c3nc4ccc(C)cc4nc3-n3nc(C)cc3C)CC2)c1 | nt | 6%[46.1 µM] | 11%[46.1 µM] | -0.7% | nt | -1% | -3% | nt
CC(=O)C1=C(O)C(=O)N(c2ccccn2)C1c1ccc(Cl)cc1 (centres undefined) | 4% | 19%[46.1 µM] | 3%[46.1 µM] | nt | 1% | nt | 5% | -9%
CC(OC(=O)CNC(=O)c1ccco1)C(=O)Nc1ccc(Cl)cn1 (centres undefined) | -4% | 11% | ? | nt | nt | nt | 0% | 1%
COc1ccc(CCC(=O)Nc2ccc(C(=O)c3ccncc3)cc2)cc1 | 5% | 9%[46.1 µM] | -2%[46.1 µM] | nt | -3% | nt | -6% | 20%
NC(N)=NS(=O)(=O)c1ccc(NC(=S)NC(=O)c2ccncc2)cc1 | -3% | -12%[46.1 µM] | 7%[46.1 µM] | nt | 6% | nt | 0% | 3%
C=CCn1c(SCC(=O)NCC2CCCO2)nc2scc(-c3ccccc3)c2c1=O (centres undefined) | -9% | 0%[46.1 µM] | 0%[46.1 µM] | nt | -1% | nt | -19% | 11%
CCCC(=O)NC(c1ccc(C(C)C)cc1)c1ccc2cccnc2c1O (centres undefined) | ? | 4.5µM* | ? | nt | -145% | nt | -16% | -30%
O=C(Nc1ccccc1)C1Cc2ccccc2CN1C(=O)c1ccco1 (centres undefined) | -2% | 14% | 7%[46.1 µM] | -0.5% | 17% | -7% | 63%[activator] | 19%
Cc1cc(Cl)ccc1OCC(=O)N1C(C)CCCC1C (centres undefined) | -11% | 15% | -1% | 0.4% | -30% | -5% | -3% | 9%
Cc1cc(C(=O)N2CCN(S(=O)(=O)c3ccc(C)c(C)c3)CC2)no1 | 5% | -5% | 16% | nt | nt | nt | -24% | -7%
CC(C)Oc1ccc(S(=O)(=O)N2CCOCC2)cc1NC(=O)Cc1c(F)cccc1Cl | 3% | -10% | -19% | nt | nt | nt | 6% | -11%
N#CC1=C(SCC(=O)NC23CC4CC(CC(C4)C2)C3)NC(=O)C(C#N)C12CCCCC2 (centres undefined) | -6% | -27% | ? | -7.0% | ? | -17% | ? | 1%
Cn1cc(-c2nc3ccccc3[nH]2)c2ccccc21 | -11% | 2% | 11% | -6.7% | -58% | -25% | 34%[activator] | -10%
CCc1nc(N)c(C#N)c(-c2ccc(F)cc2)c1C | 4% | 7% | 3% | -2.4% | 5% | ? | -18% | -7%
O=C(Cc1ccccc1F)NCC(=O)Nc1ccccc1Br | 4% | -2% | 0% | nt | 3% | nt | 19% | -12%
Cc1cc2cc(CNC(=O)c3ccc4c(c3)OCO4)ccc2n1C | -13% | 6% | -1% | -2.4% | ? | 20µM* | nt | 5%
O=C(c1ccccc1)c1cnc(-c2ccccc2)s1 | 0% | ? | ? | nt | -2% | nt | -29% | -11%
CC(C)Cn1c(N)c(C(=O)COC(=O)C2CC(=O)N(Cc3ccccc3Cl)C2)c(=O)n(C)c1=O (centres undefined) | -1% | 27%[46.1 µM] | ? | nt | nt | nt | ? | 2%
CCNc1nc(Oc2ccc(=O)n(C)n2)nc(N2CCOCC2)n1 | 2% | 0% | -2% | 2.1% | -4% | -7% | 4% | 9%
CCC(CC)C(=O)Nc1nnc(SCC(=O)N2CCN(c3ccccc3OC)CC2)s1 | ? | -28% | -31%&-31% | -2.7% | 3% | ? | ? | 37%
COc1ccccc1NC(=O)Nc1ccc(Br)cn1 | 3% | 21% | 19% | -1.4% | -15% | -6% | 0% | -16%
CCOc1ccccc1Nc1nc(-c2sc(NC(=O)c3ccc([N+](=O)[O-])cc3)nc2C)cs1 | -1% | nt | nt | 1.4% | 16% | 6.3µM* | nt | nt
O=C(CNC(=O)c1ccco1)Nc1ccc(F)c(Cl)c1 | 6% | 21% | ? | nt | ? | nt | 21% | 5%
Cn1nc(C(F)(F)F)c(C(=O)Nc2ccc(C(F)(F)F)cc2)c1Cl | -12% | 0% | -7% | -7.7% | -99% | 0% | -8% | -26%
COc1ccc(-n2c(SCC(=O)Nc3nnc(C)s3)nc3c([nH]c4ccccc43)c2=O)cc1 | nt | -25%[46.1 µM] | nt | -2.3% | nt | 15% | -11% | nt
O=C(NCCCCNC(=O)c1ccccc1Br)c1ccccc1Br | nt | 2% | 6%[46.1 µM] | nt | nt | nt | 8% | -5%
O=C(CCCSc1nc(-c2ccco2)cc(C(F)(F)F)n1)NCc1cccs1 | nt | ? | -12% | -6.7% | -61% | -9% | 0% | 17%
CCC(=O)Nc1ccc(-c2nc(-c3ccccc3)n(CC(=O)N3CCCCC3)n2)cc1 | 0% | 2% | ? | -1.0% | 1% | 5% | -14% | -4%
O=C(NCc1ccncc1)C(=O)N/N=C/c1cccnc1 | 1% | 8% | 18%[46.1 µM] | nt | 0% | nt | 3% | 2%
Cc1nn(Cc2ccccc2)c(C)c1C(=O)NCC(c1cccs1)N1CCOCC1 (centres undefined) | -3% | -2% | 24% | nt | nt | nt | -3% | 6%
COc1cc(C(=O)Nc2cccc(-n3cnnn3)c2)cc(OC)c1OC | 2% | nt | nt | nt | -1% | nt | -17% | 8%
Cc1cc(=O)[nH]c(-c2ccccc2OC(F)(F)F)n1 | 1% | nt | nt | nt | -3% | nt | 8% | -7%
OC1CNc2c(ccc3ccccc23)C1 (centres undefined) | nt | 29%[46.1 µM] | 7%[46.1 µM] | nt | nt | nt | 0% | -16%
CC(=NCCCn1ccnc1)c1c(O)n(-c2ccccc2)c(=O)[nH]c1=O | 2% | -5% | 2% | nt | 3% | nt | -2% | -29%
Cc1cc(-c2nnco2)c(C)n1-c1ccccc1 | 13% | 1% | ? | -0.5% | -13% | -6% | 17% | -8%
Nc1nc(NC2CCCC2)cc(=O)[nH]1 | nt | 3% | 26% | nt | nt | nt | -10% | 0%
CCOCCCNC(=O)C(NC(=O)CNC(=O)c1ccccc1)c1ccc(OC)cc1 (centres undefined) | 1% | 22%[46.1 µM] | -2%[46.1 µM] | nt | 5% | nt | -4% | 3%
CCCCn1c(SCC(=O)Nc2cccc(OC)c2)nc2ccc(N3CCOCC3)cc2c1=O | -4% | 7% | ? | -2.4% | -26% | ? | -13% | -1%[3.69 µM]
O=C(CN(C(=O)CCC(=O)Nc1nccs1)c1ccc(F)cc1)NCCc1ccccc1 | -2% | nt | ? | nt | -9% | nt | -6% | 24%
O=C(CSc1nnc(CCCO)n1-c1ccccc1)Nc1nccs1 | -3% | ? | 7% | 1.8% | -5% | -4% | 14% | 10%
CCOc1ccccc1C(=O)Nc1ccc2nc(N(CC)CC)cc(C)c2c1 | nt | 11%[46.1 µM] | ? | 0.0% | nt | -3% | -28% | nt
COc1ccc(/C(C)=N/NC(=O)c2ccncc2)cc1[N+](=O)[O-] | 3% | 4% | -28% | nt | 18% | nt | 0% | 8%
O=C(CN(CC1CCCO1)S(=O)(=O)c1ccc(S(=O)(=O)NCC2CCCO2)cc1)Nc1ccccc1 (centres undefined) | nt | 11% | -6% | 2.0% | -9% | ? | 37%[activator] | 16%
CCCCn1c(N)c(N(CCOC)C(=O)CSCc2ccc(Cl)c(Cl)c2)c(=O)[nH]c1=O | 3% | 8% | -11% | nt | nt | nt | -1% | 7%
Cc1cccc(OCC(=O)Nc2ccc(N3CCN(S(C)(=O)=O)CC3)cc2)c1C | -5% | -8% | ? | 7.7% | 6% | 13µM* | 0% | 1%
CSc1ccc(C#N)cc1NC(=O)c1cccc(Cl)c1 | 5% | 2% | 1% | 2.3% | -3% | -2% | -26% | -10%
Nc1cc(S(=O)(=O)Nc2ccccc2Cl)ccc1N1CCCC1 | 6% | nt | nt | nt | 4% | nt | 20% | -11%
O=C1c2ccccc2NC(c2ccccn2)N1c1ccccc1F (centres undefined) | 4% | 5% | 5% | -4.9% | 6% | -15% | 6% | 13%

Shown with two lines to a compound: entries from further up
Every second line gives: SARS PLP yeast	Lassa entry inh	Marburg entry inh	Cruzain inh Det	NS1 inh	Cruzain noTriton	StopGo reporter	RE007 growth inh
COc1ccccc1NC(=O)Nc1ccc(Br)cn1
    3%	21%	19%	-1.4%	-15%	-6%	0%	-16%
O=C(Cc1cccc2ccccc12)Nc1ccc2oc(-c3ccccc3)nc2c1
    -6%	-3%	23%	6.5%	-5%	?	9%	-5%
Cc1cc(C(=O)N2CCN(S(=O)(=O)c3ccc(C)c(C)c3)CC2)no1
    5%	-5%	16%	nt	nt	nt	-24%	-7%
